Mtb hypoxia rep: Mtb hypoxia fluorescent reporter inhibition | actives 0.1% (n = 300,000) | fluorescence inhibition, % (concentration not given with the values) | M. tuberculosis hypoxia-regulated fluorescent reporter, fluorescence | AID 1159583;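 active = 35 to 45% if threefold the growth effect, above 45% if 1.5-fold the growth effect; inactive = the rest, general growth blockers included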;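 also: wells of about 50 µL received 100 nL stock; 0% = vehicle wells and 100% = reference inhibitor wells; whole bacteria with a GFP reporter of the hypoxia response; strong numbers were not always called active; many hits fall short of the cut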
ugtP null kill: kills S. aureus RN4220 lacking UgtP; S. aureus RN4220 ugtP deletion, OD600 growth, 16 h; some inactives read as strong as hits; growth inhibition, % (test concentration not listed); actives 0.54% (n = 330,000); AID 1259309;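 active = z-score under -3 and OD600 up to 0.15 on both plates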;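 also: plate controls were untreated wells for no effect and antibiotic for full effect; wells of about 80 µL received 100 nL stock; the first replicate is given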
BJeLR lethal: BJeLR cell viability loss; actives 0.17% (n = 300,000); AID 1554; BJeLR (HRASV12) viability, CellTiter-Glo ATP luminescence, 48 h; reference of the scale not given here; inhibition, % (no concentration beside the values);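 active = replicate mean above 50%; inconclusive = above 50% but judged a plate artefact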;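 also: 50 nL library stock added to about 25 µL; numbers are from one replicate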
RN4220 kill: kills Staphylococcus aureus RN4220; S. aureus RN4220 growth, OD600, 16 h; inhibition, % (no concentration beside the values); actives 0.33% (n = 330,000); AID 1259311;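 active = z-score of -3 or lower and OD600 up to 0.18 on both plates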;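 also: plate controls were untreated cells for no effect and reference antibiotic for full effect; stock transfer was 100 nL into about 80 µL; one replicate is shown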
PrP 5UTR inh: inhibition of PrP 5' UTR reporter expression | cell-based PrP 5' UTR mRNA reporter, plate reader | inhibition, % (no concentration beside the values) | actives 0.35% (n = 340,000);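 active = every replicate at 50% or more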;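 also: 0 = median of the neutral control wells; tested in H4 reporter cells; numbers are from one replicate; inactives centre near -14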
Bead autofluor: counter-screen for toxin protease inhibitors: compound fluorescence. compound autofluorescence counterscreen, microsphere flow cytometry; active compounds read high. fluorescence intensity (test concentration not listed). actives 3.1% (n = 360,000). AID 624483;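 active = at least 3 SD above the mean of all compounds, about 16000 in these data; inconclusive = too few beads counted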;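 also: 100 nL of 1 mM stock went into each well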
Mtb hypoxia rep growth: second read-out of Mtb hypoxia rep, no call of its own (marks repeat the call); growth inhibition, %; measured here: M. tuberculosis growth (absorbance);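 0% = vehicle and 100% = reference antibiotic; read after six days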
Starred values were filed as active, the others as inactive; u = inconclusive; x = not tested or not shown.

molecule,Mtb hypoxia rep,ugtP null kill,Mtb hypoxia rep growth,Bead autofluor,BJeLR lethal,PrP 5UTR inh,RN4220 kill
CCN(C(=O)COC(=O)c1cc(-c2ccccc2)nc2c1c(C)nn2-c1ccc(C)cc1)C1CCS(=O)(=O)C1 (stereo unspecified),10,-1,2,2024,-8,-11,0.0
CCCCN(C(=O)c1ccc(C)o1)c1c(N)n(CC(C)C)c(=O)[nH]c1=O,-2,-1,3,5374,x,-68,0.2
Cc1ccc(S(=O)(=O)N(C)C)cc1NC(=S)Nc1cccc2ccccc12,x,x,x,6063,-1,-15,x
COc1ccc(-c2nc3c(c(SCC(=O)N4CCCC4)n2)COC(C)(C)C3)cc1,16,14,1,6364,12,-12,5.1
CCN=c1scc(C)n1/N=C/c1ccsc1,x,x,x,4309,4,-121,x
O=C(CCOc1ccccc1)Nc1ccnn1C1CCN(CCc2ccccc2)CC1,0,-1,-5,4432,11,-10,-1.9
Cc1ccccc1NC(=O)NC1(C(=O)N2CCC(O)CC2)CCCCC1,-8,2,8,5731,0,-20,-2.2
Cc1cc(C)c(NC(=O)CNC(=O)c2ccc3ncsc3c2)c(C)c1,1,-2,9,3598,x,-45,3.4
CC(C)(C)[C@H]1CCC(=O)N([C@H](CSc2ccccc2)Cc2ccccc2)CC1,x,x,x,2984,2,-16,x
CCC(CC)NC(=O)CC(c1ccccc1)c1ccccc1,5,9,4,5806,2,-20,2.9
Cc1nn(C)c(C)c1CN(Cc1nc(-c2cc(F)ccc2F)oc1C)C1CC1,7,2,5,4833,0,-19,2.3
CCc1ccc(S(=O)(=O)ON2C(=O)c3ccccc3C2=O)cc1,-2,-1,-3,4532,2,-11,-1.5
CC(=NNC(=O)C(=O)NN=C(C)c1ccccc1)c1ccccc1,2,6,7,x,x,x,5.5
Cc1nn(C(C)(C)C)c(NC(=O)c2ccccc2)c1C#N,15,8,10,3051,0,4,5.3
CCN(CC)CCN(C(=O)c1cc(Cl)sc1Cl)c1nc2cc3c(cc2s1)OCO3,-3,5,3,6046,-6,-51,-1.0
Cc1cc(C(=O)Nc2ccccc2N2CCOCC2)ccc1[N+](=O)[O-],11,0,11,9058,-2,-16,7.6
COc1ccc(S(=O)(=O)NNC(=O)c2ccccc2-n2cccc2)cc1,4,12,1,3971,-11,-20,9.6
CCCCOCCCN1CC(=O)N2[C@@H](Cc3c([nH]c4ccccc34)C2(C)C)C1=O,18,-7,15,4127,-9,-14,-1.5
O=C(NCc1ccccc1)C12CN(Cc3ccccc3)CC1C(c1ccc([N+](=O)[O-])cc1)=NO2 (stereo unspecified),16,2,15,4172,3,-7,-0.9
Cc1c(C(=O)N2CCN(S(=O)(=O)c3cc(F)ccc3F)CC2)oc2ccccc12,6,15,-1,4299,x,x,-3.3

(more compounds)
molecule,Mtb hypoxia rep,ugtP null kill,Mtb hypoxia rep growth,Bead autofluor,BJeLR lethal,PrP 5UTR inh,RN4220 kill
Cc1sc2c(c1C)C(O)=C(C(=O)Nc1ccccc1)S(=O)(=O)N2C,2,-7,-8,3526,2,-7,24
N/C(=N\c1nc2c(c(=O)[nH]1)CCC2)Nc1cccc2ccccc12,-7,-2,0,10037,-1,-32,4.7
O=C(CSc1nnnn1-c1ccc2c(c1)CCC2)Nc1ccc2c(c1)OCCO2,8,31,5,7224,1,-7,3.5
Cc1cc(S(=O)(=O)Nc2ccc(C(=O)NCC3(N4CCCCC4)CCCCC3)cc2)ccc1F,7,6,6,u,-9,0,-1.1
NC(=O)CSCc1ccc(Br)cc1,3,-4,-2,6836,0,3,1.6
CCOc1ccc(-c2c(C(=O)N/N=C/c3ccc(OC(C)C)cc3)nnn2-c2nonc2N)cc1,x,x,x,2155,7,-7,x
O=C(CSc1nc2ccccc2n1Cc1ccccc1)NN=Cc1ccccc1C(=O)O,16,-4,11,x,x,x,2.7
CNC(=S)N(CCc1c(C)[nH]c2ccc(C)cc12)Cc1ccco1,6,6,0,5551,-4,21,4.2
N#Cc1ccc(-c2cccnc2)nc1SCC(=O)c1ccccc1,-1,-14,10,x,3,-80,5.1
O=S(=O)(c1ccc(Br)cc1)N1CCN(c2cc(-c3ccccc3)nc3ncnn23)CC1,0,-1,15,7879,7,-10,4.7
CCc1cc(=O)oc2c3c(cc(OCC(=O)NC4CC4)c12)OC(C)(C)CC3,x,-3,x,5716,-1,-12,6.0
COc1ccc(Br)cc1C1CC(=O)C(C)C(c2cc(Br)ccc2OC)N1 (stereo unspecified),-2,-5,-10,3285,-8,2,-4.4
CCn1c(=O)cc(SCC(=O)N2CCN(C3CCCCC3)CC2)c2ccccc21,-12,1,1,7997,5,-20,3.2
O=C(CCc1nnc2ccc(NCc3ccco3)nn12)N1CCCCC1,-2,-2,1,5302,-9,-15,4.3
CCC(=O)N(Cc1c(C)nn(-c2ccccc2)c1Cl)c1ccc(Cl)cc1,6,3,10,8974,-12,-24,-0.6
O=C(CCCO)NNc1c2ccccc2nc2ccccc12,20,5,16,4120,7,-18,0.9
CC(C)OC(=O)C1Cc2ccccc2CN1S(=O)(=O)c1cccs1 (stereo unspecified),1,3,9,3819,-7,-23,9.3
CCOC(=O)c1ccc(NC(=O)N2CCN(CCc3ccccc3)CC2)cc1,6,-1,5,8475,-4,x,-0.4
CCOC(=O)C1CCCN(CC(=O)/C=C2/N(C)c3ccccc3C2(C)C)C1 (stereo unspecified),13,-7,13,3139,4,1,-3.7
O=C(NCc1ccc(F)cc1)N1CCN(C(=O)c2ccccc2)CC1,-2,-2,4,5379,x,-21,-3.1

(continued)
molecule,Mtb hypoxia rep,ugtP null kill,Mtb hypoxia rep growth,Bead autofluor,BJeLR lethal,PrP 5UTR inh,RN4220 kill
O=C(CP(=O)(c1ccccc1)c1ccccc1)NN=Cc1cc(Br)cc(Br)c1O,2,2,-5,x,x,x,5.1
COc1ccccc1C(=O)COC(=O)/C=C/c1ccccc1,5,10,2,4204,-5,-20,0.3
Cc1ccc(C)c(OCC(=O)Nc2ccc(S(=O)(=O)Nc3ccccn3)cc2)c1,14,1,3,2414,-3,-8,4.0
COc1ccccc1OCC(=O)Nc1cc(Cl)ccc1Oc1ccccc1,x,x,x,2236,7,-52,x
Cc1cccc(N2CC(C(=O)OCc3ccc([N+](=O)[O-])cc3)CC2=O)c1 (stereo unspecified),-2,9,3,4979,10,-20,9.1
Cc1cccc(NC(=O)[C@H](NC(=O)[C@@H]2Cc3ccccc3CN2)c2ccccc2)c1,-18,-16,0,5209,12,-24,-2.1
O=C(CNC(=O)c1cccs1)N/N=C/c1ccc(Cl)cc1,x,x,x,3699,-2,-2,x
c1ccc(Nc2ncnc3c2oc2ccccc23)cc1,x,-13,x,3129,-6,-78,3.7
COc1ccc(C(=O)OC(C)C(=O)Nc2cc(C(F)(F)F)ccc2Cl)c(OC)c1OC (stereo unspecified),8,22,7,2491,-1,-30,-1.0
CC(C)c1ccc(C(=O)OC2CCOC2=O)cc1 (stereo unspecified),6,2,3,3411,-5,-26,7.1
Cc1ccc(N=C2NC(=O)C(CC(=O)O)S2)cc1 (stereo unspecified),2,3,-1,14347,-6,2,1.6
CN(C)C(=O)c1ccc(NC(=O)COC(=O)Cn2cc(C(F)(F)F)ccc2=O)cc1,2,3,-11,u,x,4,1.9
Cn1cc(C(=O)NN=Cc2cccc(O)c2)ccc1=O,11,-1,0,x,x,x,-2.7
CC(C)CCOC(=O)/C(=C/c1ccco1)NC(=O)/C=C/c1ccccc1,7,-4,10,5952,-2,-33,-0.8
COC(=O)c1c(O)c2c([nH]c1=O)CCCC2,16,-1,10,2605,-1,-28,-6.0
CCC(c1nnc(SCC(=O)Nc2ccc(C(C)=O)cc2)n1C1CCCCC1)N(C)C (stereo unspecified),3,1,11,2434,-1,-17,4.7
CN1CCN(CC(=O)N2c3ccccc3C(C)(c3ccccc3)CC2(C)C)CC1 (stereo unspecified),x,1,x,2187,-3,2,1.0
CC(=O)Nc1nc(-c2ccc3c(c2)CCN3S(C)(=O)=O)cs1,-7,-18,-6,2340,1,-52,2.4
CCCCNc1c(-c2ccc(OC)c(SC3CCCCC3)c2)nc2ccc(Cl)cn12,6,1,11,3905,x,-5,2.1
CCC1(c2ccccc2)NC(=O)N(CC(=O)NCC2COc3ccccc3O2)C1=O (stereo unspecified),-4,7,9,u,x,-10,2.4

Next section.
molecule,Mtb hypoxia rep,ugtP null kill,Mtb hypoxia rep growth,Bead autofluor,BJeLR lethal,PrP 5UTR inh,RN4220 kill
O=C(NC1CCCCC1)n1c(=O)oc2ccc(Cl)cc21,1,-1,0,23566*,6,-31,6.2
CC(C)c1ccc(C2C(C#N)=C(N)Oc3c2oc(CO)cc3=O)cc1 (stereo unspecified),-4,-4,7,3302,-5,-9,3.7
O=C(Nc1nnc(SCC(=O)N2CCCC2)s1)C1CC(=O)N(c2ccc(F)cc2)C1 (stereo unspecified),1,-2,8,5519,3,-1,3.0
O=C(O)CN1C(=O)S/C(=C\c2ccc3c(c2)OCO3)C1=O,11,5,10,4440,-3,-18,3.1
CCOc1ccccc1NC(=O)N1CCC(NC(=O)c2cccc(C)c2)CC1,2,-1,-1,3910,-6,-1,0.4
Cc1cccc(N2CCN(C(=O)CNC(=O)c3cccc([N+](=O)[O-])c3)CC2)c1C,13,25,0,5678,-5,-7,-7.5
COc1ccc(CC(=O)OCC(=O)Nc2ccc(N3CCOCC3)cc2)cc1,-1,2,9,4903,5,-10,0.8
Cc1cc(C)cc(Nc2nc(-c3ccc(S(=O)(=O)N4CCCC4)cc3)cs2)c1,11,-9,5,1864,8,-15,-0.6
O=C(CSc1cccc[n+]1[O-])c1cc2ccccc2o1,4,13,2,2369,4,-15,-7.0
COc1ccc(S(=O)(=O)N2CCOCC2)cc1NC(=O)CN(C)Cc1c(F)cccc1Cl,-6,11,13,4485,-19,-13,2.8
O=C(CSc1ncccn1)Nc1ccc(Cl)c(S(=O)(=O)N2CCOCC2)c1,7,-3,8,4182,x,-21,-0.2
CCCn1c(N)c(N(CCOC)C(=O)CSc2ccccc2)c(=O)[nH]c1=O,3,-3,8,3831,x,-1,0.2
O=C(Nc1cccc([N+](=O)[O-])c1)c1cccc(C(=O)Nc2cccc([N+](=O)[O-])c2)c1,x,x,x,4261,-2,-11,x
O=C(Nc1nnc(C2CC2)s1)c1ccccn1,1,-6,-1,10572,5,-11,2.6

Reformatted with each value named: entries from further up
> COc1ccc(CC(=O)OCC(=O)Nc2ccc(N3CCOCC3)cc2)cc1
  Mtb hypoxia rep = -1 | ugtP null kill = 2 | Mtb hypoxia rep growth = 9 | Bead autofluor = 4903 | BJeLR lethal = 5 | PrP 5UTR inh = -10 | RN4220 kill = 0.8
> Cc1cc(C)cc(Nc2nc(-c3ccc(S(=O)(=O)N4CCCC4)cc3)cs2)c1
  Mtb hypoxia rep = 11 | ugtP null kill = -9 | Mtb hypoxia rep growth = 5 | Bead autofluor = 1864 | BJeLR lethal = 8 | PrP 5UTR inh = -15 | RN4220 kill = -0.6
